Source: PubChem BioAssay (Fisher Drug Discovery Resource Center)
NPYLR7 ag: mosquito NPYLR7 agonism. HEK293T NPYLR7/Galpha15, GCaMP6s calcium fluorescence. activation, % at 10 µM. 0.15% of 270,000 active. AID 1259423; in the data active means activation above about 40%;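 further: 0% = vehicle and 100% = reference agonist at the receptor; some compounds past the cut are filed as inactive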
NPYLR7 ag max-min: further read-out of NPYLR7 ag, marked with its call; activation, %; measured here: Max-Min RFU normalised activation; some inactives read as strong as hits;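 span of the calcium signal over five minutes; 0% = vehicle and 100% = native peptide agonist; compound fluorescence can raise it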
* = called active by the depositor. Only part of the results is shown (hit frequency here may not be typical).

No. | SMILES | NPYLR7 ag | NPYLR7 ag max-min
1 | CC(C)Cn1cncc1Cn1cnc(-c2ccccc2)c1C1CCOC1 (stereo not drawn) | 12 | 4
2 | CCn1nc(C)cc1C(=O)N=c1sc2cc(F)ccc2n1C | 6 | 15
3 | O=C(CCl)Nc1ncc(Cc2c(Cl)cccc2Cl)s1 | 19 | 14
4 | CC(NCC(=O)c1c[nH]c(C(=O)N2CCCC2)c1)c1ccc2c(c1)CCCC2 (stereo not drawn) | 0 | 16
5 | CC1(CNC(=O)C2CCCN2C(=O)Cc2ccccc2)CCCO1 (stereo not drawn) | 2 | 2
6 | Cc1ccc(N2CCn3c(SCC(=O)N4CCOCC4)nnc32)cc1 | 1 | 1
7 | COc1ccc(N2CCN(C(=O)c3csc(CSc4nnc(-c5ccncc5)n4-c4ccccc4F)n3)CC2)cc1 | -1 | 4
8 | O=C(C1=Cc2ccccc2OC=C1)N1C[C@H]2CC=CC[C@H]2C1 | -1 | -6
9 | CCN(C(=O)C1=CCCCO1)C(C)c1ccncc1 (stereo not drawn) | 2 | -2
10 | COC(=O)CCc1c(C)nn(-c2ccc(C(=O)N[C@H](C)C(C)(C)C)cc2)c1C | -8 | -16
11 | O=C(c1ccc2c(c1)OCO2)N(CCN1CCCC1)CC(=O)N1CCc2sccc2C1COc1ccc(F)cc1 (stereo not drawn) | -2 | -3
12 | CCOc1ccccc1OCCN(C)C(=O)c1cnccc1C | 0 | -7
13 | Brc1ccc(-c2noc(CCc3ccccc3)n2)o1 | -4 | -4
14 | O=C1OC(c2ccc(Cl)cc2Cl)=NC1=Cc1ccco1 | -1 | 9
15 | CCC(=O)N(Cc1ccc(OC)cc1)Cc1cccc(C)c1 | 3 | 5
16 | O=C1/C(=C/c2ccc(-c3cc(Cl)ccc3Cl)o2)C=C(c2ccccc2)N1c1ccc(Cl)cc1 | -1 | 5
17 | O=C(CNC(=O)Cc1ccccc1)NCC(=O)OCC(=O)c1cccc2ccccc12 | -1 | -4
18 | Cc1ccc(-c2noc(CCN(Cc3ccco3)CC(O)COCc3ccccc3)n2)cc1Cl (stereo not drawn) | -3 | -2
19 | Cc1nc2ncccc2cc1C(=O)NC(CC(C)C)c1nnc2n1CCNCC2 (stereo not drawn) | 3 | 1
20 | O=C(Nc1ccc(SCc2cccnc2)nn1)C1CC1 | 0 | -2

Record cards (already shown).
CCC(=O)N(Cc1ccc(OC)cc1)Cc1cccc(C)c1 across the screens: NPYLR7 ag = 3; NPYLR7 ag max-min = 5
O=C(Nc1ccc(SCc2cccnc2)nn1)C1CC1 across the screens: NPYLR7 ag = 0; NPYLR7 ag max-min = -2
O=C1/C(=C/c2ccc(-c3cc(Cl)ccc3Cl)o2)C=C(c2ccccc2)N1c1ccc(Cl)cc1 across the screens: NPYLR7 ag = -1; NPYLR7 ag max-min = 5

Later entries
No. | SMILES | NPYLR7 ag | NPYLR7 ag max-min
21 | Cc1cc(=O)n2nc(N3CCCC(C(=O)O)C3)sc2n1 (stereo not drawn) | -5 | -2
22 | COC(=O)[C@@H]1CCCN1Cc1c(C(=O)N(C)CCc2ccccc2)nc2sccn12 | 4 | 7
23 | CN(Cc1ccn[nH]1)C(=O)c1ccc(OCC(=O)N2CCCCC2)cc1 | 14 | 8
24 | COC(=O)c1cc(-c2ccco2)nc2c1c(C)nn2C1CCS(=O)(=O)C1 (stereo not drawn) | 6 | 3
25 | Cc1ccc(C(C)NC(=O)CN2C[C@H]3C[C@H](O)[C@@H](O)C[C@H]3C2)cc1 (stereo partly drawn) | 6 | 2
26 | Cc1noc(C(C)SCc2ccccc2C)n1 (stereo not drawn) | -2 | -8
27 | CCOc1cccc(/C=C2/SC(=Nc3cccc([N+](=O)[O-])c3)C(C(=O)OC)=C2O)c1O | -3 | -6
28 | Cc1noc(-c2ccncc2)c1C(=O)NCCOc1ccccc1 | 11 | 14
29 | Cc1cc(C)cc(Nc2c(C(=O)N3CCCC3)cnc3nc(C)ccc23)c1 | 13 | 7
30 | O=C(NCc1ccccc1)c1cc(=O)c(OCc2ccc(F)cc2)co1 | 3 | -1
31 | FC(F)Oc1ccc(-c2csc(NNC3=NCCCCC3)n2)cc1 | 0 | -2
32 | CCCNC(=O)c1c(O)nc2cc(C)ccn2c1=O | -2 | 0
33 | CC(C)CN1C(=O)C2(CCCC2)NC1c1cn[nH]c1-c1cccnc1 (stereo not drawn) | -8 | 755
34 | CCC1CCC(C(=O)NCc2cc(N(C)C)nc3ccccc23)O1 (stereo not drawn) | -2 | -5
35 | Cc1cnccc1N1CCCN(C(=O)c2cc(-c3ccccc3)n[nH]2)CC1 | 5 | 1
36 | Nc1nc(Cl)cc(N2CCN(C(=O)c3ccccc3OC(F)F)CC2)n1 | 2 | 1
37 | Cc1csc(N(C(=O)c2ccccc2OC(F)F)C2CC2)n1 | 4 | 0
38 | Cn1nnc2c(N3CCN(C(=O)C(c4ccccc4)c4ccccc4)CC3)ncnc21 | 0 | 12
39 | Cc1cccc(-c2nnc(CCl)o2)c1 | -2 | 0
40 | COc1ccc(-c2ccnc(SCc3ccc(C(=O)N4C5CCC4CC(Oc4cc(C)ccc4Cl)C5)cc3)n2)cc1 (stereo not drawn) | 10 | -2

Some of the entries above in a different format.
(38) Cn1nnc2c(N3CCN(C(=O)C(c4ccccc4)c4ccccc4)CC3)ncnc21
  NPYLR7 ag = 0; NPYLR7 ag max-min = 12

(29) Cc1cc(C)cc(Nc2c(C(=O)N3CCCC3)cnc3nc(C)ccc23)c1
  NPYLR7 ag = 13; NPYLR7 ag max-min = 7

(39) Cc1cccc(-c2nnc(CCl)o2)c1
  NPYLR7 ag = -2; NPYLR7 ag max-min = 0

(28) Cc1noc(-c2ccncc2)c1C(=O)NCCOc1ccccc1
  NPYLR7 ag = 11; NPYLR7 ag max-min = 14

Additional compounds follow:
No. | SMILES | NPYLR7 ag | NPYLR7 ag max-min
41 | Cc1cccc2c(-c3cc(NCCO)ncn3)c[nH]c12 | 2 | 2
42 | COCC(=O)N(Cc1cccc(OS(=O)(=O)c2ccc(NC(C)=O)cc2)c1)Cc1ccco1 | 8 | -1
43 | CCC(C(=O)Nc1nnc(SCC(=O)c2cccc([N+](=O)[O-])c2)s1)c1ccccc1 (stereo not drawn) | 31 | 28
44 | CC(Sc1nc2ccccc2n1C1CCCCC1)C(=O)NCC(F)(F)F (stereo not drawn) | 7 | 1
45 | CCc1c(C)nn(C)c1NC(=O)c1cccc(CN2CCCC(C(N)=O)C2)c1 (stereo not drawn) | -1 | 27
46 | COc1ccc2c(c1)CCCN(c1nnc(Cl)cc1C(N)=O)C2 | 8 | 3
47 | CC(C)c1noc(CN2CCCC3(C2)C(=O)Nc2ccccc23)n1 (stereo not drawn) | 6 | 4
48 | CN1Cc2ccccc2CC1Cn1cnc(-c2ccccc2)c1-c1ncc[nH]1 (stereo not drawn) | -5 | -3
49 | CCCCS(=O)(=O)N1CCN(c2nc3nccc(C(C)(C)C)n3n2)CC1 | 26 | 33
50 | O=c1oc2cc(O)ccc2cc1S(=O)(=O)c1ccc(Cl)cc1 | 11 | 9
51 | CC(=O)OCC(=O)[C@@]1(O)CCC2C3CCC4=CC(=O)C=CC4(C)C3[C@@H](O)C[C@@]21C (stereo partly drawn) | -1 | -8
52 | Cc1cc(C)n(CCC2CC(=O)Nc3nn(Cc4ccccc4)c(C)c32)n1 (stereo not drawn) | -1 | -1
53 | CCCCNc1ccc(S(=O)(=O)N2CCOCC2)cc1NS(=O)(=O)C=Cc1ccccc1 | 12 | 7
54 | CCc1nc2ccc(C(=O)N(C)Cc3ccccc3)cn2c1N(CC)C(=O)NCCc1ccccc1 | -26 | -26
55 | O=C(CCC1CCN(C(=O)Cn2cncn2)CC1)N1CCN(c2ccccc2)CC1 | 8 | 6
56 | COc1ccc(-c2cc(=O)[nH]c(SCc3nc(-c4ccccc4OC)oc3C)n2)cc1 | 0 | -4
57 | CCOCCn1c(=NC(=O)c2cc(C)nn2CC)sc2cc(NC(C)=O)ccc21 | 1 | 7
58 | CCC(C(=O)NC(Cc1ccccc1)C(=O)Nc1nnc(-c2cccc(C)c2)s1)c1ccccc1 (stereo not drawn) | 12 | 14
59 | CCOC(=O)c1c(C)c(C(=O)NC2CCCCC2)c(C)n1C | 0 | 27
60 | COCCS(=O)(=O)Nc1cc(C2CCCCCC2)[nH]n1 | 1 | 0
61 | Cc1ccc(-c2cn(CC3CCN(Cc4cnc(C)[nH]4)CC3)nn2)cc1 | 19 | 7
62 | Cc1ccc(C=C(C#N)C(=O)NCC2CCCO2)o1 (stereo not drawn) | -5 | -10
63 | O=C(C1=CCCCC1)N1CCC2(CCCN(CCc3ccccc3)C2)C1 (stereo not drawn) | 15 | 9
64 | CC(C)CS(=O)(=O)N(Cc1ccco1)Cc1ccco1 | 3 | 4
65 | CC(Sc1nnc(C(C)C)o1)C(=O)Nc1cc(Cl)ccc1Cl (stereo not drawn) | 3 | 2
66 | COC(=O)[C@@H]1C[C@@H](NC(=O)CCN2CCCO2)CN1C | 0 | 0
67 | O=C(NCCc1ccccn1)c1ccc2nc(Cc3ccccc3F)oc2c1 | 22 | 12
68 | CCC(NC(=O)Cn1c(=O)cc(C)c2ccccc21)c1ccnn1C (stereo not drawn) | 24 | 16
69 | CO[C@H]1CN(C2CCOCC2)[C@H]2Cc3c(oc4ccccc34)[C@@H]1C2 | 15 | 25
70 | CC(NC(=O)c1nn(-c2ccc(F)cc2)c(=O)n(Cc2cccc(Cl)c2)c1=O)c1ccccc1 (stereo not drawn) | 10 | 9
71 | C[C@@]1(O)CCN(C(=O)Cc2ccc(O)cc2)C[C@@H]1Cc1ccccc1 | 16 | 13
72 | CNS(=O)(=O)c1ccc(-c2ccc(C3Nc4ccccc4C(=O)N3C)o2)cc1 (stereo not drawn) | 2 | 1
73 | COCCN(Cc1nc(C(=O)NC(C)CCc2ccccc2)cs1)C(=O)Nc1cccc(Cl)c1 (stereo not drawn) | 16 | 17
74 | O=C(CCN1CCCCO1)NCCNC(=O)c1ccc(F)cc1 | -1 | 4
75 | O=C(NCCNc1nc(-c2ccccc2Cl)nc2ccccc12)Nc1ccc(C(F)(F)F)cc1 | 0 | 11
76 | CCCCN(CC(=O)Nc1cc(-c2ccccc2)nn1-c1ccc(OC)cc1)S(=O)(=O)c1c(C)cc(C)cc1C | -2 | 7
77 | Cc1ccsc1C1SC(C)C(=O)N1CCN(C)C(=O)c1cccc(F)c1 (stereo not drawn) | 32 | 29
78 | CCOC(=O)c1sc(SC#N)c(C#N)c1C | -4 | -11
79 | S=C1NC2=C(CCCC2=C2SCCS2)C(c2ccccc2)N1 (stereo not drawn) | 17 | 11
80 | c1ccc(CN2CCCN(Cc3cc4n(n3)CCCNC4)CC2)nc1 | 2 | 9
81 | COCCCNC(=O)c1cc(-c2cccnc2)nc2ccccc12 | 5 | 7
82 | Cc1ccc(F)cc1Nc1nc(-c2cc3ccccc3oc2=O)cs1 | 6 | 4
83 | COc1ccc(-c2nc3ccccc3c(=O)o2)cc1[N+](=O)[O-] | -10 | -19
84 | CC(C)CC(C)N(C)C(=O)c1cc(F)cc(F)c1 (stereo not drawn) | -2 | -3
85 | COc1ccc(S(=O)(=O)N2CCc3c(nnn3C)C2)cc1C1(C)NC(=O)NC1=O (stereo not drawn) | 2 | -1
86 | CCCC(=O)N1CCC1(C)C(=O)NS(=O)(=O)c1ccc(OC)c(OC)c1 (stereo not drawn) | 1 | 0
87 | Cc1n[nH]c(C)c1Sc1ccccc1N=Cc1ccc(C(=O)O)cc1 | -5 | -4
88 | CN(CC1COc2ccccc2O1)c1cc(=O)n2cc(Cl)ccc2n1 (stereo not drawn) | 3 | 5
89 | NC(=O)c1ccc(CN2CCCC2c2ccc3c(c2)OCCCO3)cc1 (stereo not drawn) | 5 | 0
90 | CCc1ccccc1NC(=O)CCN1CCN(S(=O)(=O)N2CCCC2)CC1 | -11 | -11
91 | COc1ccccc1-c1nn(CN2CCOC(C)C2)c(=S)o1 (stereo not drawn) | 5 | 2
92 | COc1cccc(Cc2nc3c(c(=O)[nH]2)CN(S(=O)(=O)c2c(C)cc(C)cc2C)CC3)c1 | 12 | 15
93 | CC1=NN(c2ccccc2)C(=O)/C1=C/c1cccnc1 | -9 | -18
94 | CCOC(=O)C1(Cc2ccccc2C)CCCN(C(=O)c2sccc2C)C1 (stereo not drawn) | -8 | -10
95 | CN(C)C(=O)c1csc(-c2csc(Nc3ccc4c(c3)CCC4)n2)c1 | 13 | 12
96 | Oc1cccc(-n2cnnn2)c1 | 0 | 7
97 | COc1cccc(CN2CCC2(C)C(=O)NCc2cccc(C(F)(F)F)c2)c1OC (stereo not drawn) | -5 | -1
98 | C#CC(=O)N1CCC(n2c(-c3ccccc3)nc3ccc(F)cc32)CC1 | 3 | 0
99 | Cn1cc(C(CC(=O)N2CCN(c3cccc(Cl)c3)CC2)c2cccc(F)c2)c2ccccc21 (stereo not drawn) | 0 | 11
100 | CCCNC(=O)C(NC(=O)c1cccc(C)c1)C1CCN(C(=O)c2ccccc2OC)CC1 (stereo not drawn) | -4 | 1

Next part.
No. | SMILES | NPYLR7 ag | NPYLR7 ag max-min
101 | CCN(C(=O)CCc1cc(OC)ccc1OC)c1ccccc1C | 16 | 7
102 | O=[N+]([O-])c1ccc2c(c1)N([O-])C1(CCCCC1)[N+]2=O | -12 | -18
103 | Cc1c(C(=O)Nc2ccc(N3CCCS3(=O)=O)cc2)oc2c(Cl)cccc12 | 8 | 5
104 | O=c1[nH]c(CNCCO)nc2ccsc12 | 6 | 9
105 | COc1cccc(NC(=O)C2(C)CCCN(C(C)C)C2)c1OC (stereo not drawn) | 1 | 0

Down the list, from the results shown:
NPYLR7 ag max-min for nos. 5–8 → 2, 1, 4, -6
